Assay outcomes as filed in PubChem.
MgrA-DNA mod – S. aureus MgrA activity modulators, primary screen, biochemical, S. aureus Newman, fluorescence polarization | MgrA-DNA binding | inhibition, %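 (about 10 µg/mL by stock and volumes)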 | actives 0.13% (n = 84,000) | AID 602314, 2012;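 active means above 50% in either of two replicates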;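 further: 0% = protein plus DNA without compound and 100% = DNA alone without protein; higher means less MgrA bound to DNA so lower polarization; one replicate is shown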
S aureus helic – inhibitors of S. aureus replicative helicase, primary screen, biochemical, fluorescence unwinding readout; actives 0.05% (n = 120,000); purified S. aureus helicase, fluorescence unwinding assay; about half of the hits fall short of the stated cut; inhibition, %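 (tested at about 80 µM)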;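 active means both duplicates at 50% or more, or one of them with a favoured structure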;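 further: 0% = mean of negative control wells and 100% = mean of positive control wells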
Numbers without * were called inactive; . = no result given; & = joins results of further samples.

MgrA-DNA mod | S aureus helic | SMILES
. | 23.0 | O=C(Cn1ccn(-c2ccc(F)cc2)c(=O)c1=O)c1ccc(F)cc1
-1.2 | 11.0 | CCOC(=O)c1c(C)c(C(=O)N2CCCCCC2)c(C)n1CC
. | -1.0 | CCC1CCCCN1C(=O)COC(=O)/C=C/c1ccccc1Cl (stereo not drawn)
. | 33.0 | Cc1cc(=O)oc2cc(OC(C)C(=O)NN)ccc12 (stereo not drawn)
0.6 | 10.0 | Cn1cc(CC(=O)NCCN2CCN(c3cccc(Cl)c3)CC2)c2ccccc21
-1.9 | 2.0 | NC(=O)c1c(NC(=O)Nc2ccccc2)sc2c1CCCC2
-1.2 | 1.0 | O=C(c1cccnc1)N1CCN(C(c2ccccc2)c2ccccc2)CC1
-0.3 | 17.0 | O=C(O)C1CCCN(CCc2ccccn2)C1 (stereo not drawn)
16.9 | 7.0 | COc1ccc(CNC(=O)CN2C3CCCC2CC(=O)NC3)cc1 (stereo not drawn)
-0.5 | -2.0 | CCOc1ccc(NC(=O)CCS(=O)(=O)c2ccc3c(c2)OCC(=O)N3)cc1
4.5 | 6.0 | CCN(Cc1nc(-c2cccc(C)c2)no1)C(=O)c1c(OC)cccc1OC
. | 4.0 | COc1ccc(N(CC(=O)N2CCc3ccccc32)S(=O)(=O)c2c(C)[nH]c(=O)[nH]c2=O)cc1
-0.2 | 10.0 | COc1cccc(OCC(=O)N2CCCc3ccccc32)c1
3.0 | 5.0 | c1ccn2cc(-c3ccc4c(c3)OCO4)cc2c1
0.8 | 10.0 | COC(CNC(=O)c1cccc(-n2c(=S)[nH]c3cc(Cl)ccc3c2=O)c1)OC
2.5 | -5.0 | Cc1ccc(C)c(C2C3CCCC=C3C(C#N)=C(N)C2(C#N)C#N)c1 (stereo not drawn)
0.8 | 7.0 | Cc1cc(=O)oc2c1ccc1occ(NO)c12
3.7 | . | O=C1CC(c2ccco2)Sc2ccccc2N1 (stereo not drawn)
. | -23.0 | CC1CCc2c(sc(NC(=O)CN3CCN(S(=O)(=O)c4cccs4)CC3)c2C(=O)OC(C)C)C1 (stereo not drawn)
. | 4.0 | CC(C)NC(CC(=O)Nc1ccccc1Cl)C(=O)O (stereo not drawn)
. | 8.0 | COc1ccc(S(=O)(=O)Nc2cc(C(=O)NC3CCCCCCC3)ccc2N2CCOCC2)cc1
. | 12.0 | CCCn1c(=O)c2ccccc2n2c(SCCCc3ccccc3)nnc12
-1.9 | 19.0 | COc1ccc(-n2nc3ccc(NS(C)(=O)=O)cc3n2)cc1Cl
-0.9 | 9.0 | CC1(C2CCC3C4CCC5CC6(C/C(=N\O)C5(C)C4C(O)CC32C)OCCO6)OCCO1 (stereo not drawn)
3.9 | 4.0 | CCCNC(=O)c1ccc(OC)c(OC(=O)c2ccccc2)c1
-5.7 | 3.0 | COc1ccc(Cl)cc1NC(=O)CSc1nc2nccnc2c(=O)n1CC1CCCO1 (stereo not drawn)
-2.6 | 3.0 | COc1cccc(NC(=O)COC(C)=O)c1
. | 1.0 | O=C(NC1CCCCCC1)c1n[nH]c(=O)c2ccccc12
. | 29.0 | O=c1ccc(S(=O)(=O)N2CCCC2)c[nH]1
. | -4.0 | CCCn1c(NC(=O)C2CCCC2)nc2ccccc21

The list continues:
MgrA-DNA mod | S aureus helic | SMILES
-0.5 | . | CC(=O)Nc1ccc(-c2cc(C(=O)O)c3ccccc3n2)cc1
. | 5.0 | COCc1cc(=O)[nH]c(/N=C(\N)Nc2ccc(C)cc2C)n1
. | -19.0 | O=C(NCCN1CCOCC1)c1sc2cc(Cl)ccc2c1Cl
3.2 | 8.0 | Nc1ncn(C(=O)c2ccccc2)n1
. | 12.0 | CC(OC(=O)c1ccc(S(=O)(=O)C(F)F)cc1)C(=O)N1CCOCC1 (stereo not drawn)
. | -5.0 | COc1ccc2oc(=O)cc(CN3CCN(c4cccc(C)c4)C(C)C3)c2c1 (stereo not drawn)
. | -21.0 | COc1ccc(Cl)cc1N(C)C(=O)Cn1ncc2c1-c1ccccc1OC2
. | 5.0 | O=C(CSc1nnc(-c2ccc(F)cc2)c2ccccc12)NC(=O)NCc1ccco1
-2.5 | 9.0 | FC(F)(F)C1(C(F)(F)F)N=C(N2CCOCC2)OC(N2CCOCC2)=N1
. | 5.0 | CCOC(=O)Cn1c(=O)n(C2CCCC2)c(=O)c2ccccc21
0.9 | 10.0 | CC1CC(N(C(=O)c2ccc(Cl)cc2)c2ccccc2)c2ccccc2N1C(=O)c1ccco1 (stereo not drawn)
. | -34.0 | COc1cc(OC)cc(C(=O)N2c3ccccc3N3C(c4c(C)cc(C)cc4C)=NON23)c1
-2.0 | . | Cc1sc(-c2ccc(Cl)cc2)nc1CC(=O)O
. | 14.0 | Cc1cc2ccccc2n2c(SCC(=O)NCC3CCCO3)nnc12 (stereo not drawn)
. | -8.0 | O=C(COC(=O)C1=COCCO1)NCc1ccc(Cl)cc1
. | 8.0 | CN(CCc1ccccn1)Cc1ccc(Cl)cc1
. | 6.0 | CC1CCCCC1NC(=O)COC(=O)c1ccc(C#N)cc1 (stereo not drawn)
1.4 | . | CCCc1c(C)nc(-c2cccc(C)c2)[nH]c1=O
9.5 | -4.0 | Cc1cc(C(=O)N2CCC(C)CC2)nc2c1c(C)nn2-c1ccccc1
1.5 | 2.0 | CCOC(=O)c1sc(Nc2ccccn2)nc1C
2.2 | 9.0 | Cc1ccccc1OCC1CN(CN(CC(C)C)CC(C)C)C(=O)O1 (stereo not drawn)
. | 14.0 | CCC(=O)N1CCc2cc(S(=O)(=O)N(C)CC(OC)OC)ccc21
. | -10.0 | CCOc1ccc(NC(=O)CC(=O)Nc2ccc(OCC)cc2)cc1
-1.3 | 10.0 | O=C(Nc1sc2c(c1C(=O)O)CCC2)c1ccccc1
. | 32.0 | CO/N=C/c1nc2ccccc2s1
5.7 | . | NC(N)=Nc1nc(CSCC/C(N)=N\S(N)(=O)=O)cs1
-4.8 | 1.0 | COC(=O)c1sc(NC(=O)c2ccc3c(c2)OCO3)c(C#N)c1C
9.3 | 11.0 | CC(C)c1nnc2sc(-c3cccc4ccccc34)nn12
-0.2 | 8.0 | COc1ccccc1NC(=O)N(Cc1cc2c(C)ccc(C)c2[nH]c1=O)CC1CCCO1 (stereo not drawn)
8.1 | . | O=C(CCN1C(=O)/C(=C\c2cccs2)SC1=S)Nc1cccc(C(=O)O)c1

Three of the entries above in order of their number in MgrA-DNA mod, lowest first:
MgrA-DNA mod | S aureus helic | SMILES
-4.8 | 1.0 | COC(=O)c1sc(NC(=O)c2ccc3c(c2)OCO3)c(C#N)c1C
1.5 | 2.0 | CCOC(=O)c1sc(Nc2ccccn2)nc1C
5.7 | . | NC(N)=Nc1nc(CSCC/C(N)=N\S(N)(=O)=O)cs1

Record cards, as listed above. Order of screens: MgrA-DNA mod	S aureus helic
`CCCc1c(C)nc(-c2cccc(C)c2)[nH]c1=O` is entered as 1.4	.
`CC(C)c1nnc2sc(-c3cccc4ccccc34)nn12` is entered as 9.3	11.0
`COc1ccccc1NC(=O)N(Cc1cc2c(C)ccc(C)c2[nH]c1=O)CC1CCCO1` (stereo not drawn) is entered as -0.2	8.0
`CCOC(=O)c1sc(Nc2ccccn2)nc1C` is entered as 1.5	2.0
`FC(F)(F)C1(C(F)(F)F)N=C(N2CCOCC2)OC(N2CCOCC2)=N1` is entered as -2.5	9.0

(further entries)
MgrA-DNA mod | S aureus helic | SMILES
. | 14.0 | NC(=O)c1ccc(OCC(=O)N(c2ccccc2)C2CCS(=O)(=O)C2)cc1 (stereo not drawn)
-1.1 | . | O=C(Nc1cc(S(=O)(=O)c2ccccc2)cs1)c1ccc(Cl)cc1
0.6 | -22.0 | CC(=O)Nc1sc2c(c1CN1CCCCC1)CCCC2
4.0 | 10.0 | Cc1ccc2c(c1)C1C=CCC1C(c1ccc(N=Cc3ccccc3)cc1)N2 (stereo not drawn)
0.7 | . | COc1ccc2oc(=Nc3cccc(C(F)(F)F)c3)c(C(=O)NC(C)=O)cc2c1
-3.0 | 9.0 | O=C(NCCN1CCCCC1)c1ccccn1
. | -8.0 | CC1(C)C2CCC1(CS(=O)(=O)Nc1ccccc1)C(=O)C2 (stereo not drawn)
. | 7.0 | O=C(Nc1ccccc1)C1C(=O)NC23CCCCC2C1c1ccccc1O3 (stereo not drawn)
15.9 | 6.0 | Cc1ccc2c(C(=O)CNc3nncs3)c(C)[nH]c2c1
1.0 | . | COc1nc(N)nc(-c2csc(C)n2)n1
2.5 | . | N#Cc1c(-c2ccccc2)c[nH]c1N
. | 7.0 | Cc1cccc(NC(=O)CNC(=O)COc2ccc3oc4ccccc4c3c2)c1C
. | 11.0 | CCOc1cc(-c2noc(CCCC(=O)NC3CCCCC3)n2)cc(Br)c1OC
1.5 | 0.0 | O=C(/C=C/c1ccccc1)Nc1ccc(Br)cc1
-1.9 | 13.0 | CC(C)NS(=O)(=O)c1ccc(N2C(=O)c3ccccc3C2=O)cc1
1.6 | 6.0 | CC1=CCC2C(=O)N(c3ccc(C(=O)Nc4ccccc4)cc3)C(=O)C2C1 (stereo not drawn)
-0.1 | . | O=C(Nc1cccnc1Oc1ncnc2cc(Cl)ccc12)c1ccc(F)cc1
1.1 | 4.0 | Cc1ccc(CSCC(=O)NCCc2ccc(Cl)cc2)cc1
1.5 | . | N#Cc1cc([N+](=O)[O-])ccc1-n1cccc1
4.3 | . | Cc1ccccc1C(=O)Nc1nc(SCc2ccc(Cl)cc2)n[nH]1
. | 5.0 | O=C(CSc1nccn1-c1ccccc1)Nc1ccc2c(c1)OCO2
-3.0 | 1.0 | CC(=O)OC1CC(C)(C)N(O)C(C)(C)C1
0.8 | 18.0 | Cc1cc(C)n(-c2ccc(C(=O)Nc3ccccc3)cc2)n1
. | 28.0 | O=S(=O)(NCc1ccccc1Cl)c1cccc2nsnc12
. | -8.0 | CC1CCC(NC(=O)Cn2ncc3ccccc32)CC1 (stereo not drawn)
0.9 | 5.0 | O=C(Nc1nc(-c2ccc(Cl)cc2)cs1)C1c2ccccc2Oc2ccccc21
. | -1.0 | Cc1cc(Cl)ccc1NCC(=O)N/N=C/c1ccc2c(c1)OCO2
. | 7.0 | O=C(NC1CCCCC1)N1CCn2cccc2C1c1cccnc1 (stereo not drawn)
. | 15.0 | Nc1nc(NCc2ccccc2)c(I)c(=O)[nH]1
0.6 | . | Cc1cc(SCCS(=O)(=O)CCSc2cc(C)c(Cl)cc2C)c(C)cc1Cl

(more compounds)
MgrA-DNA mod | S aureus helic | SMILES
. | 15.0 | Cc1ccc(C)c(NC(=O)CCn2ccc(C)n2)c1
. | 19.0 | COc1cc2c(cc1NC(=O)C(C)Sc1nc3ccccc3c(=O)[nH]1)oc1ccccc12 (stereo not drawn)
. | 22.0 | CC(O)c1cccc2ccccc12 (stereo not drawn)
2.0 | -11.0 | COc1ccc(S(=O)(=O)N2CCN(C(=S)NCC3CCCO3)CC2)cc1OC (stereo not drawn)
. | 8.0 | CCCn1c(SC(C)C(=O)C23CC4CC(CC(C4)C2)C3)n[nH]c1=O (stereo not drawn)
. | -19.0 | CCOc1ccc(NC(=O)CN2C(=O)S/C(=C/c3ccc(Cl)cc3)C2=O)cc1
-1.5 | -1.0 | CCC(Oc1ccccc1)C(=O)N1CCN(c2ccc(OC)cc2)CC1 (stereo not drawn)
. | 2.0 | O=C(COC(=O)c1ccc(-n2cnnn2)cc1)c1ccc(S(=O)(=O)N2CCCCC2)cc1
-0.9 | 11.0 | CCN(C(=O)C1CCN(S(=O)(=O)c2cccc3nonc23)CC1)c1ccccc1
-1.2&3.5 | . | CN(C(=O)CN(CCO)CC(=O)N(C)C(C)(C)Cc1ccccc1)C(C)(C)Cc1ccccc1
. | 6.0 | CCCOc1ccc2c3c(c(=O)oc2c1)CCC3
-1.0 | 9.0 | CCN(CC)CCC(O)(c1ccccc1)C1CCCCC1 (stereo not drawn)
1.5 | 16.0 | COc1ccc2nc(NC(=O)C(C)C)sc2c1
. | 0.0 | CCN(CC)CCNCc1cc(C)n(-c2cc(C)on2)c1C
-1.7 | -4.0 | COc1ccc(-c2csc3nc(C)cc(C)[n+]23)cc1
. | -8.0 | O=C(COc1ncnc2c(Cl)cc(Cl)cc12)NCCCN1CCCC1=O
. | 6.0 | CNC(=S)N/N=C(\C)c1ccc(N2CCOCC2)cc1
. | -2.0 | CCOC(=O)c1c(C)c(C(=O)C(F)(F)F)c2ccccn12
. | 15.0 | COC(=O)C1(C(=O)OC)Sc2ccccc2C1=O
. | 22.0 | COc1ccccc1Nc1cc(=O)[nH]c(=O)[nH]1
. | -14.0 | Nc1ncnc2nc(SCc3ccc(Cl)cc3Cl)[nH]c12
-0.6 | . | COCc1cc(=O)n2[nH]c(-c3ccccc3)cc2n1
. | 10.0 | CCc1cc2c3c([nH]c2cc1S(=O)(=O)NC(C)(C)C)CCCC3=O
-0.7 | -9.0 | CC(C)N(C(=O)CSc1ncn[nH]1)c1ccccc1
. | -6.0 | N#C/C(=C\C=C\c1ccccc1)C(=O)N1CCCC1
-2.3 | 3.0&-11.0 | O=C(O)C1CCCCN1S(=O)(=O)c1cccc2nsnc12 (stereo not drawn)
2.7 | . | COc1ccc2c(c1)nnc1nnc(SCC(=O)NN)n12
-1.8 | 12.0 | Cn1c(/C=N/O)nc2ccccc21
. | 5.0 | CC1CCCCN1C(=O)COC(=O)c1ccc(N2CCCC2=O)cc1 (stereo not drawn)
. | 4.0 | COCCn1c(SCc2csc(N(C(C)=O)c3ccccc3)n2)nc2ccccc21

More records follow.
MgrA-DNA mod | S aureus helic | SMILES
-2.0 | . | Cc1ccc(/C=N/NS(=O)(=O)c2ccc(C)cc2)cc1
0.3 | 2.0 | Nc1ccc(C(=O)N2CCCCC2)cc1
0.0 | -14.0 | CCOC(=O)c1c(-c2ccccc2)csc1NC(C)=O
0.0 | 7.0 | CC(C)N(Cc1nc(-c2ccccc2)no1)C(=O)CCc1ccccc1
0.8 | . | CN1CCN(C(=O)c2cccc3c2OC(C)(C)C3)CC1
-2.0 | 1.0 | COc1ccc(C(=O)C(O)c2ccc(OC)cc2)cc1 (stereo not drawn)

Some of the compounds tested. The share of hits here may be higher or lower than overall.
